From PubChem
RanGTP-Imp inh = inhibitors of RanGTP-importin-beta interaction, primary screen, biochemical, FRET, CFP-Ran, YFP-importin-beta, homogeneous; 300,000 compounds, 1.1% hits; cell-free CFP-Ran/YFP-importin-beta FRET ratio; inhibition, % (no concentration beside the values);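 active = most replicates above 15%; inconclusive = exactly half above 15%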;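 also: 0% = DMSO wells and 100% = Ran loaded with GDP instead of GTP; wells of about 40 µL received 100 nL stock; the first replicate is given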
MLL AF4-AF9 inh = MLL-AF4/AF9 protein interaction inhibition | AID 651704 | AlphaScreen, biotin-AF4 peptide binding to FLAG-AF9 | P42568 | 350,000 compounds, 0.47% hits | inhibition, % at 10 µM;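 active = every replicate reaching a set inhibition limit, whatever the replicate mean, cut at about 25% in these data; inconclusive = mean inhibition reaches that limit but some replicates miss it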;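 also: 0% = plate neutral control median and 100% = total signal loss; the record names both 10 and 1 µM as test concentration; the first replicate is given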
Target sequence (P42568 whole entry, looked up): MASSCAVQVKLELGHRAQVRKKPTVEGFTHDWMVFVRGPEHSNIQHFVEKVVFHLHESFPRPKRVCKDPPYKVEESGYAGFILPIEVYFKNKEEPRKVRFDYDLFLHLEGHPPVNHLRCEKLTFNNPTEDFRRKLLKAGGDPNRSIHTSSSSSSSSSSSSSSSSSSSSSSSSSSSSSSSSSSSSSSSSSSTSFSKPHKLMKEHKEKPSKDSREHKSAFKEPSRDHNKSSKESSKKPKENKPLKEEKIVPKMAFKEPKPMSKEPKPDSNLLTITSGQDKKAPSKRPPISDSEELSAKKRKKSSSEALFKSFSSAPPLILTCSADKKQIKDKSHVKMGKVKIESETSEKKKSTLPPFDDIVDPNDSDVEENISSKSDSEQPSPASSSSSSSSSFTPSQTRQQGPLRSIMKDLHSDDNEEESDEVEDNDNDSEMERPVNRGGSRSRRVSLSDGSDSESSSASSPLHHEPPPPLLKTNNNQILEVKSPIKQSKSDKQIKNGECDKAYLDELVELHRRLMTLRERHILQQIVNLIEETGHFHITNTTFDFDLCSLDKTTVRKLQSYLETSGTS
FGF22 binding = shifts melting point of recombinant human FGF22; 340,000 compounds, 1.5% hits; recombinant FGF22 thermal shift, SYPRO orange fluorescence; percent of sucrose octasulfate shift, DMSO zero; Q9HCT0; calls only at 9.99 µM; AID 651658;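 active = melting point raised past a set limit in the mean and every replicate; inconclusive = no clear call; three in four hits are not shown here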
Target sequence (Q9HCT0 whole entry, looked up): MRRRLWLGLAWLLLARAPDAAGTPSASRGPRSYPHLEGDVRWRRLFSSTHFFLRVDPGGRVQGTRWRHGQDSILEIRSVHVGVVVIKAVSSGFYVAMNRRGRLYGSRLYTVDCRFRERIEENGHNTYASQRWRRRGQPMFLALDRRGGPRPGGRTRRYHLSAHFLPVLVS
UCH37 DUB inh = blocks the human deubiquitinase UCH37; purified proteasome/UCH37, Ub-AMC cleavage fluorescence; 330,000 compounds, 0.33% hits; inhibition, % (no concentration beside the values); Q9Y5K5;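 active = mean of two replicates above 20%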;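 also: 0% = compound-free wells with enzyme and 100% = wells lacking proteasome; stock transfer was 100 nL into about 20 µL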
Target sequence (Q9Y5K5 whole entry, looked up): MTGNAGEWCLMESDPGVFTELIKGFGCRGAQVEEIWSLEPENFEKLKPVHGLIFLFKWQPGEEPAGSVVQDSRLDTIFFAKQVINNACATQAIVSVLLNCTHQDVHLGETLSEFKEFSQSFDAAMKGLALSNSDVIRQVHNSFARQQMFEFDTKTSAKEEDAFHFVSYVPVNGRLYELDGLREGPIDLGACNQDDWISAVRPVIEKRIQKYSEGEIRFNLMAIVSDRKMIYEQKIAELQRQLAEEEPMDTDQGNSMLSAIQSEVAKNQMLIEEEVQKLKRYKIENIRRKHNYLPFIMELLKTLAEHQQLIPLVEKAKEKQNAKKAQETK
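Material: Human UCH37 enzyme supplied as purified proteasome complex | Schedule: 30 min compound-proteasome preincubation then 25 min substrate reaction, room temperature | Detection: AMC fluorescence from Ub-AMC cleavage, excitation 355 nm, emission 460 nm | Benchmarks: Wells without proteasome as full block, compound-free enzyme plus substrate as uninhibited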
E coli growth = E. coli growth inhibition; Escherichia coli growth, OD600, 23 h; stronger effect = lower value; OD600 absorbance (test concentration not listed); 330,000 compounds, 0.21% hits; AID 1053175;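 active = OD600 absorbance below the run mean of sample wells minus 3.6 SD, in any replicate, cut at about 0.56 in these data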;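 also: stock transfer was 300 nL into about 60 µL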
HNF4A DNA FP = change in binding of human HNF4 alpha to DNA | P41235 | HNF4a-FITC DNA binding, fluorescence polarization, 1 h | activity change, % at 10 µM | 360,000 compounds, 0.3% hits | AID 1224865; in the data active = activity change above about 30%, passing the limit was not always enough;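 also: controls were the assay level and a saturating level of protein; the project sought stronger binding though the title names inhibitors; some compounds called inactive have numbers as strong as hits; positive values seem to mean higher polarization but the record does not say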
Vif TR-FRET = inhibitors of Vif binding to APOBEC3G peptide, primary screen, biochemical, TR-FRET, GST-Vif 1-94, biotin-A3G peptide, dose response retest (AID 1117319). TR-FRET GST-Vif / biotin-A3G peptide binding; higher % means a stronger effect; test concentration not given here; strong numbers were not always called active. one-dose inhibition, %; IC50 in µM for titrated hits. 260,000 compounds, 0.57% hits;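 active = above the screen mean plus three standard deviations and confirmed in dose response; inconclusive = results disagree or hit not tested in dose response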;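 also: Vif residues 1-94 fused to GST binding biotinylated APOBEC3G peptide 110-148; 0% = full assay without inhibitor and 100% = GST in place of GST-Vif; retest series ran down from 100 µM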
The depositor's hits bear a star; i = inactive; u = inconclusive; x = not tested or not shown; & = joins results of further samples. Not all compounds are listed (hit frequency here may not be typical).

#	mol	RanGTP-Imp inh	MLL AF4-AF9 inh	FGF22 binding	UCH37 DUB inh	E coli growth	HNF4A DNA FP	Vif TR-FRET
1	CC(=O)c1ccc(Oc2ncnc3sccc23)cc1	x	-0.5	i	-3.8	0.666	2.1	2.3%
2	O=C(COc1ccc(S(=O)(=O)N2CCOCC2)cc1)N1CCCCCC1	-4.9	-0.8	i	7.7	0.653	-2.2	0.4%
3	O=C(NCC1CCCO1)c1nn2c(C(F)(F)F)cc(-c3cccs3)nc2c1Cl (stereo unspecified)	u	-0.1	i	-49.8	0.7	10.0	1.0%
4	Cc1ccc(S(=O)(=O)N2CCN(Cc3cc(=O)n4ccccc4n3)CC2)cc1C	x	1.8	i	-3.4	0.714	-2.1	-2.2%
5	O=C(Nc1cccnc1)C1CC(=O)N(c2ccc(F)cc2)C1 (stereo unspecified)	-2.8	-4.4	i	4.9	0.652	-3.1	-14.1%
6	CCO[C@H]1OC(C(=O)N2CCOCC2)=C[C@@H](c2cn(C(C)=O)c3ccccc23)[C@@H]1CCCO	-2.3	2.2&1.3	i	1.9	x	0.7	3.0%
7	O=c1oc2ccccc2cc1-c1csc(Nc2ccc(O)cc2)n1	4.2	3.2	i	0.7	0.701	1.1	8.0%
8	COc1cccc(CSc2nnc(CSc3nc4nc(C)cc(C)n4n3)s2)c1	5.8	-41.2	i	0.3	0.698	-0.7	7.9%
9	CC(C)[C@H](CO)NC(=O)[C@H]1O[C@@H](n2ccc(=O)[nH]c2=O)[C@H](O)[C@@H]1O	x	0.3	i	x	x	-1.0	x
10	COc1ccc(N2CCN(S(=O)(=O)c3ccc(C(=O)NCc4ccco4)cc3)CC2)cc1	-3.8	x	x	0.7	0.692	-0.6	u
11	CCc1ccc(N2CC(C(=O)Nc3ccc(F)cc3)CC2=O)cc1 (stereo unspecified)	2.0	0.6	i	5.2	0.685	4.4	0.2%
12	Cc1cc(NCCc2ccc(Cl)cc2)n2ncnc2n1	-5.2	-0.3	i	5.6	0.701	-2.9	-1.4%
13	O=C1c2ccccc2C(c2nnnn2C2CCCCC2)N1CCc1ccc(O)cc1 (stereo unspecified)	x	1.5	i	x	x	-0.9	x
14	O=C(NCCc1ccccc1)Nc1nnc([C@@H]2C[C@H](O)[C@@H](CO)O2)s1	x	-2.2	i	x	x	-2.2	x
15	CC(C)(C)c1ccc(-c2nnc(SCC(=O)c3ccc4c(c3)OCCO4)o2)cc1	-3.4	x	x	-0.1	0.733	-0.9	-9.5%
16	CCOC(=O)CSc1cc(C)c(C#N)c2nc3ccccc3n12	-2.4	-0.8	i	2.7	0.692	-5.5	-3.4%
17	O=C1CCCc2c1cc(C(=O)Nc1ccc(Br)cn1)c(=O)n2-c1ccccc1	-15.4	x	x	3.8	0.76	-1.4	3.4%
18	Cc1ccc(-c2csc(-c3c[nH]c4ccccc34)n2)c(C)c1	3.8	x	x	x	0.703	1.2	-1.3%
19	Cc1nn(Cc2ccccc2)c2c1C(c1cccnc1)C(C#N)=C(N)O2 (stereo unspecified)	0.6	x	x	0.9	0.706	-1.4	3.7%
20	CC(C)[C@H](NC(=O)[C@@H]1Cc2c([nH]c3ccccc23)C2c3ccccc3C(=O)N21)C(=O)N1CCC[C@@H]1C(=O)O (stereo partly specified)	6.9	-2.3	i	-6.8	0.663	-0.3	x
21	CCOc1cc(C(=S)N2CCOCC2)ccc1OC(=O)c1cc(OC)c(OC)c(OC)c1	2.7	-13.9	i	-1.0	0.645	0.0	x
22	NC(N)=NN=C1c2ccccc2-c2ccccc21	-2.3	13.2	i	10.0	0.65	-0.6	-3.6%
23	CCn1c(SCc2ccc(Cl)cc2)nnc1-c1ccccc1	-1.0	x	x	1.3	0.67	-2.4	x
24	O=C(Nc1cccc(OC(=O)c2cccnc2)c1)c1cccnc1	0.3	x	x	1.0	0.683	-0.1	0.7%
25	CCN(CC)C(=O)Cn1c(=O)n(CCCC(=O)NCc2ccc3c(c2)OCO3)c(=O)c2sccc21	-0.9	-3.4	i	5.0	0.662	4.5	x
26	CCOC(=O)Cc1csc(SCC(=O)Nc2cccc(Cl)c2)n1	2.2	x	x	2.5	0.741	0.7	-1.2%
27	Cc1cccc(CCNC(=O)C2CCCN(S(=O)(=O)c3cccc4nsnc34)C2)c1 (stereo unspecified)	1.5	x	x	1.5	0.736	-2.1	6.3%
28	CCOC(=O)C(C)Oc1cccc2c(=O)n(CC(=O)Nc3ccc4c(c3)OCCO4)ccc12 (stereo unspecified)	3.0	44.7*	i	-2.9	0.759	-3.4	2.4%
29	CCNC(=O)COC(=O)c1cc(-c2ccc(OC)cc2)nc2ccccc12	5.3	x	x	-109.0	0.705	2.2	17.1%
30	CCCS(=O)(=O)C(=C(Nc1ccc(OC)cc1)Nc1ccc(OC)cc1)S(=O)(=O)CCC	4.2	x	x	4.8	0.669	0.5	-3.9%
31	CCOC(=O)Oc1ccc2oc(C)c(C(=O)OCCOC)c2c1	0.8	x	x	2.4	0.653	-1.5	6.4%
32	O=C(NCCc1ccccc1)C1CCC(=O)N1C1CCCC1 (stereo unspecified)	4.9	-1.9	i	6.0	0.652	-2.5	2.7%
33	COc1cc(C2C(C#N)=C(N)Oc3n[nH]c(C)c32)cc2c1OCO2 (stereo unspecified)	3.9	x	x	11.2	0.712	1.1	27.0%
34	Cc1ccc(S(=O)(=O)N2CCC(=O)N(CCOCc3ccc(C(F)(F)F)cc3)CC2)cc1	1.4	-6.7	i	-0.2	0.691	-0.5	26.7%
35	COc1ccccc1N1CCN(C(=O)c2oc3ccc(F)cc3c2C)CC1	2.0	-20.4	i	0.1	0.654	-6.5	x
36	N#CN=C1SCCS1	x	x	x	3.5	0.705	0.6	-1.5%
37	O=C(c1cc2ccccc2[nH]1)N1CCOCC1	0.3	x	x	0.4	0.701	-0.6	x
38	CCC12CN(C(=O)c3ccc(OC)cc3)CC(CC)(CN(C(=O)c3ccc(OC)cc3)C1)C2=O	-0.7	x	x	3.7	0.711	-0.3	-11.9%
39	Cc1csc2nc(O)c(C(=O)NC3CCCCCC3)c(=O)n12	-0.1	4.6	i	2.1	0.682	3.6	-0.8%
40	CCN(Cc1ccccc1)S(=O)(=O)CCNC(=O)c1ccc(OC)cc1	7.0	-12.3	i	2.2	0.686	3.5	1.3%
41	O=C(Cc1ccc(N2CCNC2=O)cc1)N1CCCC(Nc2ccc(F)c(F)c2)C1 (stereo unspecified)	-2.5	1.1	i	-1.8	0.669	6.0	x
42	CNS(=O)(=O)c1cccc(C(=O)OCC(=O)N2CC(C)OC(C)C2)c1 (stereo unspecified)	1.1	0.5	i	-0.2	0.698	-3.2	x
43	COc1ccc(OC)c(NC(=O)CC(Cc2ccccc2OC)C(=O)O)c1 (stereo unspecified)	3.4	x	x	1.7	0.676	-4.8	6.5%
44	Nc1cc(N)cc(C(=O)Nc2ccc3c(c2)C(=O)NC3=O)c1	-2.1	-1.2	i	6.7	0.672	-2.1	x
45	COc1ccc2oc(=O)c(C(=O)N3c4ccccc4CC3C)cc2c1 (stereo unspecified)	-2.3	4.2	i	3.3	0.724	-2.4	-6.5%

One compound at a time, from the list above:
COc1ccccc1N1CCN(C(=O)c2oc3ccc(F)cc3c2C)CC1 is listed with RanGTP-Imp inh: 2.0; MLL AF4-AF9 inh: -20.4; FGF22 binding: i; UCH37 DUB inh: 0.1; E coli growth: 0.654; HNF4A DNA FP: -6.5; Vif TR-FRET: x
O=C(c1cc2ccccc2[nH]1)N1CCOCC1 is listed with RanGTP-Imp inh: 0.3; MLL AF4-AF9 inh: x; FGF22 binding: x; UCH37 DUB inh: 0.4; E coli growth: 0.701; HNF4A DNA FP: -0.6; Vif TR-FRET: x
COc1ccc2oc(=O)c(C(=O)N3c4ccccc4CC3C)cc2c1 (stereo unspecified) is listed with RanGTP-Imp inh: -2.3; MLL AF4-AF9 inh: 4.2; FGF22 binding: i; UCH37 DUB inh: 3.3; E coli growth: 0.724; HNF4A DNA FP: -2.4; Vif TR-FRET: -6.5%

Next compounds.
#	mol	RanGTP-Imp inh	MLL AF4-AF9 inh	FGF22 binding	UCH37 DUB inh	E coli growth	HNF4A DNA FP	Vif TR-FRET
46	Cc1cc(C)cc(NC(=O)C2CCCN2C(=O)NC2CCCCC2)c1 (stereo unspecified)	-0.8	0.3	i	0.7	0.714	0.2	-2.3%
47	COc1ccccc1N1CCN(CCCCOc2ccc(F)cc2)CC1	0.2	x	x	5.8	0.663	5.0	7.8%
48	CCOC(=O)C1=C(C)OC(N)=C(C#N)C1c1cccs1 (stereo unspecified)	5.1	-0.8	i	2.1	0.666	1.0	25.1%
49	COc1ccc(OC)c(-c2c(C#N)c(N)nc3c2c(=O)nc2sccn23)c1	u	-0.9	i	9.6	0.647	-3.4	10.2%
50	O=C(CN1CCN(S(=O)(=O)c2ccc3ccccc3c2)CC1)Nc1ccc(N2CCOCC2)cc1	-1.6	4.3	i	1.9	0.665	0.8	x
51	CCN(CC)S(=O)(=O)c1ccc(Cl)c(NC(=O)CCCCl)c1	-2.4	1.4	i	3.1	0.619	0.0	10.1%
52	Cc1ccc(C(=O)C(C)OC(=O)C2CC(=O)N(C3CCCCC3)C2)cc1 (stereo unspecified)	-5.0	x	x	6.3	0.679	2.9	1.8%
53	O=C(O)CNC(=S)N(Cc1cccs1)C1CCCCC1	-2.9	x	x	3.6	0.718	-0.5	6.2%
54	CC(C)=CCc1c(O)cc2oc3c(CC=C(C)C)c(O)c(O)c(CC=C(C)C)c3c(=O)c2c1O	6.1	21.1	i	8.6	0.769	11.9	x
55	CCOC(=O)N1CCN(CC(O)COCc2cc(OC)c(OC)c(OC)c2)CC1 (stereo unspecified)	-0.2	x	x	4.6	0.713	0.9	x
56	COc1cccc(CN2CC(C(=O)NCCn3ccc(C)n3)CCC2=O)c1 (stereo unspecified)	1.8	-1.9	i	-1.6	0.659	0.2	x
57	FC(F)(F)c1ccccc1/C=N/Nc1ccccn1	-1.6	3.0	i	x	x	2.4	-3.1%
58	Cc1ccc(S(=O)(=O)NCc2ccc(C(=O)NC3CC3)cc2)cc1	2.2	5.8	i	-1.8	0.706	1.1	8.1%
59	OCc1cn(-c2ccccc2)nc1-c1ccc(Br)cc1	-1.3	-5.6	i	1.3	0.735	-2.3	x
60	CCc1ccc(-c2nn(-c3cc(Cl)ccc3[N+](=O)[O-])c(=O)c3ccccc23)cc1	x	x	x	-1.6	0.784	0.3	-0.8%&-2.3%
61	COc1ccc(S(=O)(=O)N(C)C[C@H]2Oc3ccc(NS(=O)(=O)c4cccs4)cc3C(=O)N([C@H](C)CO)C[C@@H]2C)cc1	x	2.3&-4.2	i	1.6	x	4.4	x
62	COC(=O)c1ccccc1SC1CC(=O)N(c2cccc(C)c2)C1=O (stereo unspecified)	u	-0.9	i	1.5	0.69	0.2	x
63	COCCN(CC1CCCN(C2Cc3ccccc3C2)C1)C(=O)c1cccs1 (stereo unspecified)	4.2	-1.2	i	5.4	0.71	2.0	x
64	CCOc1ccc(NC(=O)CN(C)Cc2ccc3c(c2)OCO3)cc1S(=O)(=O)N1CCCC1	x	1.2	i	3.3	0.723	-3.5	-3.2%
65	Cc1ccc(OC(C)C(=O)Nc2cccc(S(=O)(=O)N3CCCCCC3)c2)cc1 (stereo unspecified)	x	-4.7	i	x	x	2.6	x
66	Cc1ccc(NC(=O)CN(C)C(=O)CSc2nnc(N)s2)cc1	x	-0.8	i	2.4	0.723	1.1	-0.2%
67	CC(C)N(C)CCOC(=O)C1COc2ccccc2O1 (stereo unspecified)	1.9	-2.3	i	0.5	0.669	2.1	-11.5%
